MITF inhib: MITF inhibition | TRPM1 promoter luciferase, luminescence, 24 h | hit rate 0.28% among 37,000 | inhibition, % (test concentration not listed) | AID 2240;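 active = most replicates at 85% or more, or half of them and the mean; inconclusive = half reach 85% but not the mean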;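 note: human melanocyte line stably carrying TRPM1 promoter luciferase reporter; 0% = vehicle wells and 100% = a positive control; the first replicate is given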
PD-1 reversal: reversal of PD-1 mediated T-cell inhibition. primary human CD4 T cells, PD-L1 beads, CellTiter-Glo 96 h. activation, % (concentration not given with the values). 29,000 tested, under 10 active. AID 2316;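 active = replicate mean of 50% or more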;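 note: 0% = median vehicle wells and 100% = positive control; 100 nL library stock added to about 50 µL; numbers are from one replicate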
Hedgehog inh: blocks Sonic Hedgehog signaling; Shh-LIGHT2 Gli-luciferase reporter, 30 h; inhibition, % (concentration not given with the values); hit rate 2.1% among 22,000; AID 2313;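 active = replicate mean of 65% or more; inconclusive = mean lower but half the replicates past it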;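 note: pathway switched on by Shh-conditioned medium diluted 1 in 25 in low serum; 100 nL library stock added to about 40 µL; 0% = median of neutral wells and 100% = positive control level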
YB-1 expression: YB-1 expression inhibition; hit rate 0.37% among 30,000; AID 434959; U2OS, qRT-PCR YB-1 vs CDIP delta delta Cp, 16 h; hits give high values; zero = DMSO, each unit about twofold; delta delta Cp (YB-1 minus CDIP) (concentration not given with the values);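 active = delta delta Cp rounded down to an integer at or above 3, about 3 SD of DMSO wells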;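 note: higher means less YB-1 transcript or more CDIP transcript relative to DMSO; stock transfer was 100 nL into about 100 µL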
The depositor's hits bear a star; ? = inconclusive; . = no result given. Only part of the results is shown, so the mix of outcomes need not match the whole.

SMILES | MITF inhib | PD-1 reversal | Hedgehog inh | YB-1 expression
C[C@@H]1CN([C@H](C)CO)C(=O)Cc2cc(NS(=O)(=O)c3ccc(F)cc3)ccc2O[C@H]1CN(C)S(=O)(=O)c1cccs1 | -6.4 | . | 11.8 | 0.00974
O=C1C(=O)N(CCc2ccccc2)C(c2ccco2)C1C(=O)c1cc2ccccc2o1 (stereo not drawn) | -11.6 | -1.4 | . | .
C[C@H](CO)N1C[C@H](C)[C@H](CN(C)C(=O)Nc2ccccc2)Oc2ccc(NS(C)(=O)=O)cc2C1=O | -14.2 | . | . | 0.1
Cc1noc(C)c1S(=O)(=O)Nc1ccc2c(c1)CC(=O)N([C@H](C)CO)C[C@@H](C)[C@H](CN(C)Cc1ccncc1)O2 | -1.3 | . | 17.5 | 0.0374
O=C(O)CSc1nnc(-c2cccs2)n1-c1cccc(C(F)(F)F)c1 | -1.9 | -0.5 | . | .
CCN=C(Nc1ccc(C(C)(C)C)cc1)SCC1CC1 | -14.6 | 1.1 | . | -0.312
CC(C)NC(=O)Nc1ccc2c(c1)CC(=O)N([C@@H](C)CO)C[C@H](C)[C@H](CN(C)S(=O)(=O)c1ccc(F)cc1)O2 | 1.4 | . | -18.2 | 0.164
C[C@@H]1CCCCO[C@@H](CN(C)CC2CCCCC2)[C@@H](C)CN([C@H](C)CO)C(=O)c2cc(NC(=O)Cc3ccccc3)ccc2O1 | -17.7 | . | -0.5 | 0.176
CCOC(=O)c1[nH]c2ccc(OCC)cc2c1CCCN1C(=O)c2ccccc2C1=O | 18.9 | -0.8 | 6.4 | -0.804
COc1ccc(S(=O)(=O)N(C)C[C@H]2Oc3ccc(NS(=O)(=O)c4ccc(F)cc4)cc3CC(=O)N([C@H](C)CO)C[C@H]2C)cc1 | -5.4 | -0.4 | 33.8 | 0.163
CN(C)c1cc[n+](C(=O)N2CCOCC2)cc1 | -2.0 | 0.4 | . | -0.238
O=c1[nH]c2cc(Cl)c(Cl)cc2[nH]c1=O | 0.0 | 0.8 | -96.1 | 0.0253
C[C@H](CO)N1C[C@H](C)[C@@H](CN(C)C(=O)Nc2ccc(F)cc2)Oc2c(NC(=O)c3ccncc3)cccc2C1=O | 4.8 | 0.2 | -20.0 | 0.291
CC(C)NC(=O)Nc1ccc2c(c1)CC(=O)N([C@H](C)CO)C[C@@H](C)[C@@H](CN(C)Cc1ccc(Oc3ccccc3)cc1)O2 | 20.3 | -1.7 | ? | -0.155
C[C@@H]1CN([C@@H](C)CO)C(=O)c2cccc(NC(=O)NC3CCCCC3)c2O[C@H]1CN(C)CC1CC1 | 18.7 | . | 29.0 | 0.00214
CCc1ccccc1NC(=O)CSc1nc2ccc(C(=O)c3ccccc3)cc2[nH]1 | 20.8 | 1.4 | . | .
C=CC(C)(CC/C=C(\C)C(O)CC=C(C)C)OC1OC(CO)C(O)C(O)C1O (stereo not drawn) | . | . | 78.2* | 0.444
C[C@H]1CN([C@@H](C)CO)C(=O)c2cc(NC(=O)Nc3ccc4c(c3)OCO4)ccc2O[C@H]1CN(C)S(=O)(=O)c1ccc(F)cc1 | -44.3 | 4.0 | . | -0.535
COc1ccc(NC(=O)N(C)C[C@H]2Oc3ccc(NS(C)(=O)=O)cc3CC(=O)N([C@@H](C)CO)C[C@@H]2C)cc1 | -10.2 | 1.0 | . | -0.438
O=C1CC(C2CCCO2)C(=O)N1c1cccc(C(F)(F)F)c1 (stereo not drawn) | 4.4 | 1.4 | -6.3 | 5.8*
C[C@@H]1CN([C@@H](C)CO)C(=O)Cc2cc(NS(=O)(=O)c3ccccc3)ccc2O[C@@H]1CN(C)C(=O)Nc1ccccc1 | 1.3 | -1.3 | -21.2 | 0.249
O=c1cc(CSc2ccc(Cl)cc2)c2ccc(O)cc2o1 | -19.0 | -1.2 | -8.5 | -0.106
O=C(Nc1scc2c1c(=O)oc1ccccc12)c1ccccc1 | -49.7 | 4.0 | -57.1 | -0.268
Cc1noc(C)c1S(=O)(=O)Nc1cccc2c1O[C@H](CN(C)S(C)(=O)=O)[C@H](C)CN([C@@H](C)CO)C2=O | -3.2 | 2.7 | -12.9 | -0.363
CCN1C(=O)/C(=C2\SC(=S)N(c3ccc(OC)cc3)C2=O)c2ccccc21 | -60.6 | 0.9 | . | 0.0299
COc1ccc(NC(=O)N(C)C[C@@H]2Oc3c(NC(=O)Nc4cccc5ccccc45)cccc3C(=O)N([C@@H](C)CO)C[C@@H]2C)cc1 | 14.1 | -5.9 | -10.7 | -0.186
C[C@@H]1CN([C@H](C)CO)C(=O)c2cccc(NC(=O)c3cnccn3)c2O[C@@H]1CN(C)C(=O)Nc1cccc2ccccc12 | -1.4 | 1.0 | 22.9 | 0.282
Cc1ccc(-c2cn3c4c(sc3n2)CCCC4)cc1 | 80.5 | -1.6 | 11.4 | 0.773
CS(=O)(=O)N(CC(=O)Nc1ccccc1-c1ccccc1)c1ccc(F)cc1 | -9.2 | 0.0 | . | .
O=C1c2ccccc2CN1CCSC(=S)N1CCSCC1 | -9.2 | 0.6 | . | -0.607
C[C@H](CO)N1C[C@H](C)[C@@H](CN(C)S(=O)(=O)c2ccccc2)Oc2c(NC(=O)c3ccncc3)cccc2C1=O | -9.2 | . | -16.0 | 0.0857
C[C@H](CO)N1C[C@H](C)[C@H](CN(C)CC2CC2)Oc2ccc(NC(=O)Cc3cn(C)c4ccccc34)cc2CC1=O | 9.2 | 0.2 | 17.0 | -0.754
O=C(Nc1cccc(NC(=O)c2c(F)cccc2F)n1)c1c(F)cccc1F | 6.8 | 0.2 | 13.2 | -0.172
Cc1noc(C)c1NC(=O)N(C)C[C@@H]1Oc2c(NC(=O)c3ccc(-c4nccs4)cc3)cccc2C(=O)N([C@H](C)CO)C[C@H]1C | -3.3 | 1.1 | -6.7 | 0.232
C[C@@H]1CN([C@H](C)CO)C(=O)Cc2cc(NS(=O)(=O)c3cccs3)ccc2O[C@@H]1CN(C)S(=O)(=O)c1ccccc1 | 0.5 | -1.4 | 22.1 | 0.0884
CNC[C@@H]1Oc2c(NS(=O)(=O)c3c(C)noc3C)cccc2C(=O)N([C@H](C)CO)C[C@H]1C | -12.8 | 2.4 | -31.3 | -0.0984
C[C@@H]1CN([C@H](C)CO)C(=O)c2cc(NS(=O)(=O)c3cn(C)cn3)ccc2O[C@@H]1CN(C)Cc1ccncc1 | -0.3 | 1.3 | . | 0.0692
COc1ccc(S(=O)(=O)N(C)C[C@@H]2Oc3ccc(NS(=O)(=O)c4ccc(C)cc4)cc3C(=O)N([C@H](C)CO)C[C@@H]2C)cc1 | 9.7 | -2.9 | . | 0.224
Cc1noc(C)c1C(=O)NCCCN1CCCC1=O | -7.5 | 1.4 | . | .
C[C@@H]1CCCCO[C@H](CN(C)S(=O)(=O)c2cccs2)[C@@H](C)CN([C@H](C)CO)C(=O)c2cc(NC(=O)Cc3ccccc3)ccc2O1 | -6.1 | -1.4 | 4.4 | -0.255
COc1ccc(NC(=O)N(C)C[C@@H]2OCCCC[C@@H](C)Oc3ccc(NC(=O)c4ccccc4)cc3C(=O)N([C@H](C)CO)C[C@@H]2C)cc1 | -13.3 | -0.4 | . | -0.204
C[C@@H]1CN([C@H](C)CO)C(=O)c2cccc(NS(=O)(=O)c3ccc(Cl)cc3)c2O[C@H]1CN(C)Cc1ccccc1 | 12.6 | . | -23.6 | -0.58
C[C@@H]1CN([C@H](C)CO)C(=O)Cc2cc(NC(=O)Nc3ccccc3)ccc2O[C@@H]1CN(C)C(=O)NC1CCCCC1 | -12.1 | 0.6 | -25.5 | -0.333
O=C(Nc1ccc(-c2ccccc2)cc1)C1CC1c1ccccc1 (stereo not drawn) | 23.3 | -0.2 | 38.5 | 0.245
C[C@@H]1CCCCO[C@@H](CN(C)CC2CCCCC2)[C@@H](C)CN([C@H](C)CO)C(=O)c2cc(NC(=O)c3ccccc3)ccc2O1 | 27.2 | -0.3 | . | -0.418
C[C@@H]1CN([C@H](C)CO)C(=O)c2cc(NC(=O)Nc3ccc4c(c3)OCO4)ccc2O[C@@H]1CN(C)Cc1ccccc1 | -5.5 | 1.7 | 12.2 | -0.206
C[C@@H]1CN([C@H](C)CO)C(=O)c2cc(NC(=O)c3ccncc3)ccc2O[C@@H]1CN(C)S(=O)(=O)c1ccccc1 | -21.5 | 0.5 | . | -0.145
CCNc1nc(NCC)nc(OCC#N)n1 | -3.1 | 0.3 | . | .

Next part, starting with the last four of the part before.
SMILES | MITF inhib | PD-1 reversal | Hedgehog inh | YB-1 expression
C[C@@H]1CCCCO[C@@H](CN(C)CC2CCCCC2)[C@@H](C)CN([C@H](C)CO)C(=O)c2cc(NC(=O)c3ccccc3)ccc2O1 | 27.2 | -0.3 | . | -0.418
C[C@@H]1CN([C@H](C)CO)C(=O)c2cc(NC(=O)Nc3ccc4c(c3)OCO4)ccc2O[C@@H]1CN(C)Cc1ccccc1 | -5.5 | 1.7 | 12.2 | -0.206
C[C@@H]1CN([C@H](C)CO)C(=O)c2cc(NC(=O)c3ccncc3)ccc2O[C@@H]1CN(C)S(=O)(=O)c1ccccc1 | -21.5 | 0.5 | . | -0.145
CCNc1nc(NCC)nc(OCC#N)n1 | -3.1 | 0.3 | . | .
COc1ccc(S(=O)(=O)N(C)C[C@H]2Oc3ccc(NC(=O)C4CCCCC4)cc3C(=O)N([C@@H](C)CO)C[C@H]2C)cc1 | -9.3 | 1.4 | -10.2 | 0.291
CC(C)NC(=O)N(C)C[C@@H]1Oc2ccc(NC(=O)CCCN(C)C)cc2CC(=O)N([C@H](C)CO)C[C@@H]1C | -27.3 | . | -6.5 | 0.291
CNC[C@H]1Oc2ccc(NC(=O)C3CCCCC3)cc2CC(=O)N([C@H](C)CO)C[C@H]1C | -15.6 | 0.2 | -35.5 | -0.833
Cc1noc(C)c1NC(=O)Nc1ccc2c(c1)C(=O)N([C@H](C)CO)C[C@H](C)[C@@H](CN(C)S(=O)(=O)c1c(C)noc1C)OCCCC[C@@H](C)O2 | -5.4 | 2.7 | -10.1 | -0.24
C[C@H](CO)N1C[C@H](C)[C@@H](CN(C)S(=O)(=O)c2cccs2)Oc2c(NS(=O)(=O)c3ccc(Cl)cc3)cccc2C1=O | 1.0 | 2.3 | -29.0 | 0.104
COc1ccccc1Nc1nc(N)nc(CN(C)C2CCCCC2)n1 | 2.7 | 0.8 | . | .
COc1ccc(NC(=O)N(C)C[C@@H]2Oc3ccc(NS(=O)(=O)c4c(C)noc4C)cc3CC(=O)N([C@H](C)CO)C[C@@H]2C)cc1 | -6.8 | 0.6 | -22.3 | 0.131
C[C@H]1CN([C@@H](C)CO)C(=O)Cc2cc(N(C)C)ccc2O[C@@H]1CN(C)Cc1ccc(C(=O)Nc2ccccc2N)cc1 | 25.1 | -0.4 | . | -0.182
CCCCN1C(=O)C(O)(CC(=O)c2ccco2)c2ccccc21 (stereo not drawn) | 4.6 | -0.6 | . | .
C[C@@H]1CN([C@@H](C)CO)C(=O)c2cc(NS(=O)(=O)c3cn(C)cn3)ccc2O[C@H]1CN(C)Cc1ccccc1 | -1.5 | 0.6 | . | 0.162
C[C@H]1CN([C@@H](C)CO)C(=O)c2cccc(NC(=O)Nc3ccc4c(c3)OCO4)c2O[C@@H]1CN(C)Cc1ccc(C(=O)O)cc1 | 1.9 | . | -54.2 | 0.0338
Cc1ccc(S(=O)(=O)N(C)C[C@@H]2Oc3ccc(NC(=O)CCCCCC(=O)Nc4ccccc4N)cc3CC(=O)N([C@@H](C)CO)C[C@@H]2C)cc1 | 4.4 | -0.9 | . | -0.692
C[C@H](CO)N1C[C@H](C)[C@@H](CN(C)C(=O)Nc2cccc3ccccc23)Oc2ccc(NC(=O)c3ccncc3)cc2C1=O | -5.7 | -1.3 | . | -0.697
COc1ccc(CN(C)C[C@@H]2Oc3c(NC(=O)Nc4ccc(F)cc4)cccc3C(=O)N([C@@H](C)CO)C[C@@H]2C)cc1 | 21.7 | 0.3 | -30.4 | 0.696
Cc1noc(C)c1NC(=O)Nc1ccc2c(c1)C(=O)N([C@H](C)CO)C[C@H](C)[C@H](CN(C)Cc1ccncc1)OCCCC[C@@H](C)O2 | -9.6 | -0.1 | 0.1 | -0.384
C[C@@H]1CN([C@@H](C)CO)C(=O)Cc2cc(NC(=O)Nc3ccc(F)cc3)ccc2O[C@@H]1CN(C)S(=O)(=O)c1ccc(Cl)cc1 | -5.3 | -1.6 | 32.0 | -0.0123
C[C@H]1CN([C@@H](C)CO)C(=O)c2cccc(NC(=O)Nc3cccc4ccccc34)c2O[C@H]1CN(C)Cc1ccc(Cl)c(Cl)c1 | 43.3 | . | 5.1 | -0.413
C[C@H](CO)N1C[C@H](C)[C@H](CN(C)Cc2ccccc2)Oc2c(NS(=O)(=O)c3ccc(F)cc3)cccc2C1=O | -0.2 | -2.8 | -11.9 | -0.182
C[C@@H]1CCCCO[C@@H](CN(C)Cc2ccncc2)[C@@H](C)CN([C@H](C)CO)C(=O)c2cc(NC(=O)Nc3cccc4ccccc34)ccc2O1 | -8.1 | -0.7 | -13.5 | -0.674
CC1(C)Oc2ccc3ccc(=O)oc3c2[C@@H](O)[C@H]1O[C@@H]1O[C@H](CO)[C@@H](O)[C@H](O)[C@H]1O | -8.7 | 0.3 | -8.7 | -0.101

Assay outcomes deposited in PubChem by Broad Institute.
